High-throughput results from PubChem.
NPYLR7 ag – mosquito NPYLR7 agonism. activation, % at 10 µM. HEK293T NPYLR7/Galpha15, GCaMP6s calcium fluorescence. hit rate 0.15% among 270,000; in the data active = activation above about 40%;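 note: 0% = vehicle and 100% = reference agonist at the receptor; some compounds past the cut are filed as inactive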
NPYLR7 ag max-min – also measured in NPYLR7 ag; calls as there; activation, %; measured here: Max-Min RFU normalised activation; some inactives read as strong as hits;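 span of the calcium signal over five minutes; 0% = vehicle and 100% = native peptide agonist; compound fluorescence can raise it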
Starred values were filed as active, the others as inactive; & = joins results of further samples. These rows are one share of the data; the hit share may differ from the screen's.

Under each structure: NPYLR7 ag | NPYLR7 ag max-min
CC(C)(Sc1cc(C(C)(C)C)c(O)c(C(C)(C)C)c1)Sc1cc(C(C)(C)C)c(O)c(C(C)(C)C)c1
 : -4&-7 | -10&-8
COCC(Nc1ncnc2sc3c(c12)CCNC3)c1ccnn1C (stereo not given)
 : 10 | 5
Cc1cn(CCNc2nccc(-c3ccc(C)nc3C)n2)nn1
 : -7 | -11
CC(Sc1nnc(N)s1)C(=O)N1CC(=O)Nc2cc(C(F)(F)F)ccc21 (stereo not given)
 : 2 | 1
Cn1cc([N+](=O)[O-])c(C(=O)Nc2cc(Cl)c(Cl)cc2Cl)n1
 : -5 | -7
Cc1cccnc1C(NC(=O)COc1c(C)ccc(C)c1C)C1CC1 (stereo not given)
 : 9 | 6
CCCCC(CC)C(=O)NNC(=O)COc1cc(C)c(Cl)c(C)c1 (stereo not given)
 : -4 | -7
Cc1ccccc1NC(=O)CSC(=O)c1ccccc1
 : -24 | -22
CCOC(=O)c1ccc(NC(=O)CSc2ncnc3sc(C)c(C)c23)cc1
 : -7 | -13
Cn1cc(CN2CCc3[nH]cnc3C2c2cccnc2)c(-c2cccc(Cl)c2)n1 (stereo not given)
 : 12 | 0
Cc1cc(OC(=O)c2ccc(F)cc2)c([N+](=O)[O-])c(=O)[nH]1
 : 3 | 5
COc1cc(CN2C(=O)CON=C2c2cc(Cl)ccc2OC)cc(OC)c1
 : 8 | 4
Cc1onc(-c2ccccc2)c1C(=O)N1CCc2c(c(C(=O)N(C)C)nn2Cc2ccccc2)C1
 : 12 | 2
Cc1ccc(-n2nc3c(c2NC(=O)c2ccc(S(=O)(=O)N(C)C)cc2)CS(=O)(=O)C3)c(C)c1
 : 3 | 2
CCOC(=O)C(Cc1ccccc1)N(C)CC(=O)Nc1nccs1 (stereo not given)
 : 9 | 6

The list goes on; it opens with the two that closed the last part.
Under each structure: NPYLR7 ag | NPYLR7 ag max-min
Cc1ccc(-n2nc3c(c2NC(=O)c2ccc(S(=O)(=O)N(C)C)cc2)CS(=O)(=O)C3)c(C)c1
 : 3 | 2
CCOC(=O)C(Cc1ccccc1)N(C)CC(=O)Nc1nccs1 (stereo not given)
 : 9 | 6
COC1=Nc2cc(OC)ccc2C2c3nc(C(C)(C)C)oc3N=C(N)C12 (stereo not given)
 : 0 | -1
NCCN1C(=S)SC(=Cc2ccccc2F)C1=S
 : -7 | -7
O=C(c1ccccc1F)N1CCN(C(C(=O)N2CCCC2)C2CCCC2)CC1 (stereo not given)
 : -8 | -6
Nc1nc(NCc2ccccc2)nc(-c2cccc(O)c2)n1
 : 32 | 25
Cc1noc(C)c1CCN1CCC(=O)N(CC2CC2)C(C(C)C)C1 (stereo not given)
 : 0 | -8
COc1cc(C)ccc1OCC(=O)OC(C)C(=O)Nc1sccc1C#N (stereo not given)
 : 12 | 10
C(=Cc1ccccc1)C=NNc1ncnc2ccccc12
 : 161* | 70*
COc1ccc(CCS(=O)(=O)NCCCc2ccc(N(C)C)cc2)cc1
 : -6 | -8
COCCN(Cc1ccc(OS(=O)(=O)c2cccc(C(F)(F)F)c2)cc1)C(=O)Nc1ccc(OC)cc1OC
 : -12 | -5
Cc1ccc(Cl)c(OCC(=O)NC2=NCCS2)c1
 : 7 | 6
CCOC(=O)N1CCN(C(=O)c2noc(C(C)C)c2[N+](=O)[O-])CC1
 : 5 | 5
Clc1cc2c(cc1Sc1cccnn1)OCCO2
 : 5 | -8
O=C(OCC(=O)N1CCNC1=O)C1CCCCC1
 : 5 | 4
CCOC(=O)C1(CCc2ccccc2)CCN(C(=O)/C=C/c2ccc(OC)c(OC)c2)CC1
 : 3&2 | 2&2
Cc1cccc(C(=O)N2C(C(=O)O)COC23CCN(C(=O)c2ccccc2Cl)CC3)c1 (stereo not given)
 : 10 | 6
CCC(=O)Nc1ccc(C(=O)Cn2nc(-c3ccc(F)cc3)oc2=O)cc1
 : -4 | -4
CCN(CC)S(=O)(=O)c1ccc(N=Nc2c(O)[nH]c3c(C)cc(C)cc23)nc1
 : -3 | -7
COc1cc(C)ccc1-n1c(CCC(=O)NCc2cccc(Cl)c2)cc2c1-c1ccccc1OC2
 : 1 | 0
Cc1cc(NC(=O)CSc2nc(-c3ccccc3)nc3c2c(=O)n(C)c(=O)n3C)no1
 : 10 | 12
COc1ccccc1C(=O)Nc1ccc(N2CCC(Cc3ccccc3)CC2)c(C(=O)NCC(C)C)c1
 : 17 | 18
Cc1c(Cl)cccc1N=C1SCCN1C(=O)CN1C(=O)NC2(CCCC2)C1=O
 : 13 | 5
CCc1noc(CN(CC)C(=O)c2sc(C(C)C)nc2C)n1
 : 18 | 4
O=C(NC(c1ccccc1)c1ccsc1)C1CCN(CCOc2ccccc2)CC1 (stereo not given)
 : 7 | 2
CCOC(=O)N1CCC(N2CCN(c3nc(-c4ccccc4)nc4c3CCC4)CC2)CC1
 : -1 | -11
OC(CSc1ccc(Cl)cc1)CN1CCOCC1 (stereo not given)
 : -3&1 | -2&-1
CCC(C(=O)N(Cc1ccc(F)cc1)Cc1cc(NC(=O)c2cccc(F)c2)ccc1N(C)C)c1ccccc1 (stereo not given)
 : 27 | 24
Cc1cn2c3c(=O)n(CCc4ccccc4)c(=O)n(C)c3nc2n1C1CCCC1
 : 1 | 3
Cn1ccnc1C(=O)N1CCOC(COc2ccccc2)C1 (stereo not given)
 : 13 | 14
O=C(CCS(=O)(=O)c1ccc(Br)s1)NC1CCCCC1
 : -2 | -1
CCC(=O)Nc1ccc(C2=Nn3c(nnc(C)c3=O)SC2)cc1
 : -9 | -7
COc1ccc(-c2nnn(Cc3cc(Cl)c4c(c3)OCCO4)n2)cc1OC
 : 2 | 10
CC1(C(=O)NS(=O)(=O)c2ccccc2)CCN1C(=O)CC1CC1 (stereo not given)
 : -4 | -6
Cc1cc(=O)[nH]c(NCCNCC(=O)NC2CCCCCCC2)n1
 : 25 | 12
CC(C)COc1nc(-c2ccco2)n(-c2cccc(NC(=O)c3ccc(C(F)(F)F)cc3)c2)n1
 : 19 | 17
C=CCn1c(=O)c2c(nc3oc(-c4ccc(F)cc4)cn32)n(C)c1=O
 : 8 | 10
CCCc1c(C(=O)O)cnn1-c1ccccc1
 : 7 | 12
C=C1c2ccccc2C(=O)N1C(C)C(=O)OCc1cc(=O)n2cccc(C)c2n1 (stereo not given)
 : 9 | 3
CCc1[nH]n(-c2ccccc2)c(=O)c1C1=C([n+]2cc(C)cc(C)c2)C(=O)N(C2CCCCC2)C1=O
 : -6 | -3
Cn1c(=O)c2c(nc(Br)n2CC(N)=O)n(C)c1=O
 : 1 | 3
Cc1nnsc1CN(C)C(=O)CCSc1ccc2c(c1)OCCO2
 : 0 | -3
COc1cccc(-c2nc3nc(C)cc(C)n3c2Nc2c(C)cccc2C)c1
 : 13 | 13
COc1cccc(NC(=O)CCC2CCN(Cc3cccc(C)n3)CC2)c1
 : 8&9 | 4&0
CCOC(=O)C(=O)NC1CCc2[nH]c3c(C)cccc3c2C1 (stereo not given)
 : -10 | -12
COC(=O)c1ccc(Oc2coc3c4c(ccc3c2=O)OCN(Cc2ccco2)C4)cc1
 : 3 | 0
O=C(NCCCc1ccccc1)c1ccc(-c2cc(-c3ccc(Cl)cc3Cl)[nH]n2)cc1
 : -3 | 0

4 entries from above, reformatted.
> CCc1[nH]n(-c2ccccc2)c(=O)c1C1=C([n+]2cc(C)cc(C)c2)C(=O)N(C2CCCCC2)C1=O
- NPYLR7 ag: -6
- NPYLR7 ag max-min: -3

> Cn1c(=O)c2c(nc(Br)n2CC(N)=O)n(C)c1=O
- NPYLR7 ag: 1
- NPYLR7 ag max-min: 3

> Cc1nnsc1CN(C)C(=O)CCSc1ccc2c(c1)OCCO2
- NPYLR7 ag: 0
- NPYLR7 ag max-min: -3

> COc1cccc(-c2nc3nc(C)cc(C)n3c2Nc2c(C)cccc2C)c1
- NPYLR7 ag: 13
- NPYLR7 ag max-min: 13

The listing continues:
Under each structure: NPYLR7 ag | NPYLR7 ag max-min
O=C(c1ccc(F)cc1)N1CCSC1c1cccc(Oc2ccccc2)c1 (stereo not given)
 : -4 | 1
COC(=O)c1cc(C2CC2)nc2c1c(-c1cccs1)nn2C1CCS(=O)(=O)C1 (stereo not given)
 : 9 | 3
CCOc1ccc(-c2nc3ccc(C)cn3c2NC(C)(C)CC(C)(C)C)cc1
 : -7 | -7
CC(C)CN(CC(=O)N(Cc1ccc(F)cc1)Cc1ccco1)Cc1ccc(F)c(F)c1
 : 4 | 14
CC(C)c1cc(NC(=O)CN2CCCC(O)C2)on1 (stereo not given)
 : -1 | 1
O=C(c1ccc(=O)[nH]c1)N1CCCC(CCc2ccccc2C(F)(F)F)C1 (stereo not given)
 : 6 | 5
CCC(C)Nc1cc(C)nc2c3c(C)cc(C)nc3nn12 (stereo not given)
 : 0 | 16
Cc1cccc(C(=O)Nc2nnc(-c3ccc4c(c3)OCO4)s2)c1
 : -3 | -7
CC(C)(C)c1ccc2cc(C(=O)OCCN3CCCC3=O)[nH]c2c1
 : 0 | 39
Cc1ccc(CC(=O)NCc2ccc(N3CCSCC3)cc2)cc1
 : 0 | -2
Cc1nc(C(=O)NC(C#N)c2ccccc2C)cs1 (stereo not given)
 : 10 | 6
C=CCN(CC(=O)N1CCc2sccc2C1COc1cccc(F)c1)C(=O)c1ccc(F)cc1 (stereo not given)
 : 0 | 7
O=C(C1CC1)N1CCC(Nc2ncnc3ccccc23)CC1
 : 2 | 0
O=C1OC(/C=C\c2cccc([N+](=O)[O-])c2)=NC/1=C/C(Cl)=C/c1ccccc1
 : -4 | -2
Cc1noc(C)c1C(=O)N1CCN(c2nc3ccccc3nc2-c2ccccc2)CC1
 : 36 | 26
COc1ccc(CN(Cc2ccc(F)cc2)CC(O)COc2ccccc2C)cc1 (stereo not given)
 : 34 | 32
Cc1ccsc1[C@@H]1CCN(Cc2cccn2-c2cccnc2)C[C@H]1O
 : -5 | -5
CCCCCCCCS(=O)(=O)N1CCN(c2nc(Cc3ccc(C)cc3)ns2)CC1
 : 13 | 14
CC(C)(C)c1ccc(S(=O)(=O)NC(=O)C2(C)CCN2C(=O)Cc2ccccc2Cl)cc1 (stereo not given)
 : 5 | 1
CCC(C)N(CC)C(=O)c1cnc2ccccc2c1 (stereo not given)
 : -3 | -5
O=C1CC(=O)c2c(Cl)c(Cl)c(Cl)c(Cl)c21
 : 5 | -4
CCN1CCN(S(=O)(=O)c2cc(Cl)cc(Cl)c2O)CC1
 : 6 | 2
CC(NC(=O)COc1ccc(F)c(F)c1)c1ccc2ccccc2c1 (stereo not given)
 : -3 | -4
Cc1ccc(-n2c(SCc3ccc(F)cc3)nnc2C(C)NC(=O)Nc2ccc(F)cc2F)cc1 (stereo not given)
 : 18 | 20
O=C(NCCC(=O)N1CCc2sccc2C1)c1ccc2c(c1)CCC2
 : 3 | 1
O=C(CC1c2cccnc2C(=O)N1c1c(Cl)cccc1Cl)NCc1cccc(C(=O)O)c1 (stereo not given)
 : 4 | 7
O=C(Cn1ncc2ccccc2c1=O)N1CCCC(O)(CO)CC1 (stereo not given)
 : 6 | 4
COc1ccc(-c2cc(C)ccc2OCC(N)=O)cc1Cl
 : 10 | 11
COc1cc2ncnc(Nc3ccc(O)c(Br)c3)c2cc1OC
 : -2 | -6
Cc1ccc(-c2nnc(Nc3cccc(O)c3)c3ccccc23)cc1S(=O)(=O)NC(C)(C)C
 : -18 | -23

Next results follow.
SMILES	NPYLR7 ag	NPYLR7 ag max-min
CN(C)C(C(=O)NCC1CCN(c2cccc(Br)c2)C1)c1ccccc1 (stereo not given)	0	10
COc1ccc(C(C)=O)cc1CS(=O)c1ccccc1OC (stereo not given)	-2	-3
COc1cc2cc(C(=O)NC3CCCCC3)[nH]c2c(OC)c1OC	-1	-1
COc1ccc(OC)c(C2CC(c3ccccc3Cl)=NN2C(=O)CN2CCc3ccccc3C2)c1 (stereo not given)	9	10
COc1ccc2c(c1)CCc1c(-c3ccc(C(=O)NCCOc4ccccc4)cc3)n[nH]c1-2	24	12
CCCCCCOC(=O)C1=C(C)NC(=O)NC1c1ccccc1Cl (stereo not given)	8	5
S=c1nn[nH]n1-c1ccccc1	-1	-1
COc1cccc2sc(N(CCN(C)C)C(=O)CCS(=O)(=O)c3ccccc3)nc12	-6	-9
CCC(NC(=O)C(C)C)C1=CCCN(Cc2ncccn2)C1 (stereo not given)	1	-2
CC(=O)Cn1c(=O)c2c(nc3n2CCCN3Cc2ccco2)n(C)c1=O	4	2
CC(CN(C)C)CN1c2ccccc2Sc2ccccc21 (stereo not given)	-11&0	-18&-5
CC(=O)Nc1ccc(-n2ccc3nc4ccn(CCO)c(=O)c4cc3c2=O)cc1	4	6
COC(=O)C1=CN(Cc2cccs2)C=C(C(=O)OC)C1c1cccs1	0	-3
CCSCCN(C(=O)c1ccn[nH]1)C1CCCCC1	1	1
O=C1CCCc2occ(C(=O)N3CCC4(CC3)Nc3ccccc3C(=O)N4CCO)c21	0	8
CC(=O)NC(C)c1ccc(-c2csc(NC(=O)c3ccco3)n2)cc1 (stereo not given)	8	6
c1coc(-c2nc(-c3ccncc3)no2)c1	-1	-5
CCCc1nc(C(C)(C)NC(=O)c2sc(-c3cccs3)nc2C)no1	-4	-4
CNCc1csc(C(C)C)n1	-4	-10
Cc1cn2c3c(=O)n(CC(=O)C(C)(C)C)c(=O)n(C)c3nc2n1C1CCCC1	19	14
Cc1ccccc1C1(O)CCN(C(=O)c2cn[nH]n2)C1 (stereo not given)	-1	-8
COc1ccc(C(=O)Nc2c3c(nn2-c2cccc(C)c2C)CS(=O)C3)cc1OC (stereo not given)	0	-1
CN(CCc1ccccn1)C(=O)c1cn(CCc2ccccc2)nn1	-1	-4
Cc1sc2ncn(Cc3cc(=O)n4ccsc4n3)c(=O)c2c1C	17	15
CCc1cc(-c2cccc(C)c2C)nc(N(C)C)n1	7	0
COc1ccc(N=c2scc(CN3CCC(O)CC3)n2Cc2ccccc2)cc1	-2	-7
CC(CN1CCc2ccccc2C1)NC(=O)C1=NNC(=O)CC1 (stereo not given)	11	8
CCOc1ccc(N2CCn3c(SCc4ccccc4C)nnc32)cc1	8	6
O=C(c1ccc2[nH]c(=O)[nH]c2c1)N1CCC(Cc2ccccc2)C1 (stereo not given)	0	-1
